High-throughput results from PubChem BioAssay.
Env fusion inh: inhibitors of HIV Env-mediated cell fusion. actives 1.1% (n = 360,000). HeLa-JRFL Env/CEM21 cell fusion, luciferase. AID 651610. inhibition, % at 12.3 µM;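 active = mean replicate inhibition score of at least 50 and every replicate individually at or above 50; inconclusive = only one of the two criteria met; inactive = mean below 50 and not all replicates reaching 50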;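 also: 0% = plate neutral controls and 100% = maraviroc near 300 nM; one replicate is shown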
PABP polyA inh: PABP-poly(A) binding inhibition; actives 1% (n = 290,000); inhibition, % at 35 µM; PABP-poly(A) RNA binding, fluorescence polarization;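 active = 50% or more with normal probe brightness, or confirmed in later tests; inconclusive = above 50% with abnormal brightness, or retests that disagree; inactive = below 50% or failed in later tests; about a fifth of its hits are not listed in these tables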;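 also: calls also rest on retests at 20 µM and on dose response follow-up; controls were probe without protein and protein plus probe with vehicle; some compounds called inactive have numbers as strong as hits; many hits fall short of the cut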
Rce1 inh: yeast Ras-converting enzyme inhibition; Q03530; yeast membranes, quenched prenylated peptide cleavage fluorescence; calls only; actives 0.27% (n = 290,000); AID 2563;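 active = fall in fluorescence gain of 50% or more versus controls, with final raw signal at or below 3038400; inconclusive = same 50% fall but final raw signal above 3038400; inactive = fall in fluorescence gain under 50%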;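 also: plate controls were neutral control wells for no effect and wells lacking membranes for full effect; tested at 10 µM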
Target sequence (Q03530 whole entry, looked up): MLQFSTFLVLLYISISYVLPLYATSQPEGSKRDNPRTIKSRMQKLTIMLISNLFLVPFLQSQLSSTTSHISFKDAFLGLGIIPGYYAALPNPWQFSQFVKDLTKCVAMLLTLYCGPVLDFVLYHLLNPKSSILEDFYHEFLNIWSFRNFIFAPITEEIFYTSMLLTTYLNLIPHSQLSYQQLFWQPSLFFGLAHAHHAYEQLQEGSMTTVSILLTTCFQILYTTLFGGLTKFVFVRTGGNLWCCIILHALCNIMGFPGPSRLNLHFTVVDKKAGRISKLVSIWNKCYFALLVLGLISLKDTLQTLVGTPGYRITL
CSC inhib: cancer stem cell inhibition; cancer stem cell-like cells viability, luminescence; inhibition, % at 7.5 µM; actives 1.1% (n = 300,000); AID 2717;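 active = mean at 75% or more and at least half the replicates too; inconclusive = mean and replicates disagree; tested in HMLE shEcad cells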;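 also: 0% = median of negative and 100% = median of positive control wells; the first replicate is given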
MT1-MMP act inh: inhibitors of human MT1-MMP activation; P50281; HT1080 RFP-PRO-GFP cells, GFP/RFP ratio fluorescence, overnight; percent of plate control window, DMSO zero; GFP/RFP ratio change, % at 20 µM; actives 0.061% (n = 360,000);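 active = GFP/RFP ratio change of at least 30% with cell ATP level not reduced by more than half and red fluorescence within 50% of control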; also: strong numbers were not always called active
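Assay system: HT1080 cells carrying an RFP-PRO-GFP reporter | Dosing: Single dose of 20 µM compound, 1% DMSO final | Incubation: Cells overnight before dosing, compound overnight, 37 °C, 5% CO2 | Evaluation: GFP/RFP fluorescence ratio | Control set: DMSO and RFP-L50D-GFP cell wells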
eIF4H FP inh: inhibitors of RNA binding by human eIF4H; inhibition, % at 35 µM; actives 0.94% (n = 290,000); eIF4H fluorescence polarization binding assay;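 active = 50% or more with normal probe brightness, or confirmed in later tests; inconclusive = above 50% with abnormal brightness, or retests that disagree; inactive = below 50% or failed in later tests; about a fifth of its hits are not listed in these tables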;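 also: calls also rest on retests at 20 µM and on dose response follow-up; 0% = protein and probe with vehicle and 100% = probe without protein; strong numbers were not always called active; many hits fall short of the cut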
UUG fidelity: yeast start codon fidelity modulation; activity score, % at 18.7 µM; S. cerevisiae UUG-firefly luciferase reporter, luminescence/redox ratio; actives 0.13% (n = 350,000);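 active = replicate mean at a twofold rise or more, about +100% in these data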;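 also: firefly luciferase made from a UUG start codon reports start codon fidelity; reporter light over untreated wells divided by growth signal over untreated wells; some hits fall short of that in this replicate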
MT1-MMP act inh RFP: recorded beside MT1-MMP act inh, whose call it bears; RFP signal change, %; measured here: RFP expression control read;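 0 = vehicle wells; hits needed this value within 50% of zero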
* marks the source's active call; other numbers are inactive results; i = inactive; ? = inconclusive; / = not tested or not shown; + = active, no number. Only part of the results is shown (hit frequency here may not be typical).

Below each SMILES: Env fusion inh	PABP polyA inh	Rce1 inh	CSC inhib	MT1-MMP act inh	MT1-MMP act inh RFP	eIF4H FP inh	UUG fidelity
> O=C(CN1C(=O)NC2(CCCc3ccccc32)C1=O)NCc1ccco1 (configuration not stated)
  /	0	i	3	1	3	-2	/
> O=C(NCc1ccccc1)c1ccc(CSc2ccccc2)o1
  30	-5	i	16	1	-2	5	-16
> CCCn1c(C)cc(/C=C(\C#N)C(=O)OCC(=O)Nc2cc(OC)c(OC)c(OC)c2)c1C
  -43	-1	i	-5	3	1	19	-19
> CC1CCC(NC(=O)CCNS(=O)(=O)c2ccccc2)CC1 (configuration not stated)
  0	-7	i	/	-1	0	-13	-4
> O=C(CN1C(=O)c2cccc3cccc1c23)Nc1ccccc1
  2	-2	i	9	0	-2	0	/
> Nc1nc(SCC(=O)O)[nH]c(=O)c1NC(=O)c1ccco1
  10	18	i	4	-1	3	10	-9
> COC(=O)C(CCSC)NC(=O)C12CC3CC(CC(C3)C1)C2 (configuration not stated)
  /	7	i	-3	-9	-4	-2	-11
> Cc1cc(C)c(S(=O)(=O)c2cc(F)ccc2C)c(Cl)n1
  11	-10	i	-1	3	-1	-6	-4
> CC[C@@H]1C(c2cccc(C)c2)=NN(c2ccccc2)[C@H]1C(=O)N1CCOC1=O
  -212	/	/	/	-1	0	/	-10
> COc1cccc(CNS(=O)(=O)c2cc3c(cc2C)NC(=O)CO3)c1
  -11	14	i	14	1	-2	-6	-23
> CCc1ccc(C(C)NC(=O)Cn2cnc3c(=O)n(C)c(=O)n(C)c32)cc1 (configuration not stated)
  -88	2	i	-9	-2	-1	0	-14
> CC(=O)N1N=C(c2c(-c3ccccc3)c3cc(C)ccc3[nH]c2=O)CC1c1ccco1 (configuration not stated)
  9	11	i	-13	-4	-5	2	/
> CCCC(=O)Nc1ccc(Cl)c(NC(=O)c2cccnc2Cl)c1
  /	5	i	-1	4	3	-4	/
> Cc1onc(-c2ccccc2)c1C(=O)N/N=C/c1ccc(O)c([N+](=O)[O-])c1
  -2	2	i	-1	8	-14	10	-9
> O=C(O)CCC(=O)Nc1ccc(N=Nc2ccccc2)cc1
  /	3	i	/	6	8	8	/
> COC(=O)c1sc(N)c(C(=O)OC)c1COC(=O)CNS(=O)(=O)c1ccc(C)c(C)c1
  5	-6	i	10	-2	0	3	15
> CSc1ncnc2c1ncn2CCCN(C)CCc1ccccn1
  -12	/	/	/	7	8	/	-6
> Cc1ccc(O)c(NC(=O)C2CC(c3cccc(Br)c3)=NO2)c1 (configuration not stated)
  10	-4	/	5	8	1	-6	-8
> COCCC(=O)N1CCC(Oc2ccc(C(=O)NCc3ccon3)cc2)CC1
  /	0	i	-4	3	0	-8	-15
> CCn1ccnc1CNC(=O)CC1C(=O)NCCN1Cc1ccccc1F (configuration not stated)
  -9	11	i	-15	5	7	27	-24
> CCN(CC(=O)NCc1cccs1)C(=O)c1cccc(S(=O)(=O)NC)c1
  10	/	i	/	10	3	/	-1
> COc1ccc(-c2nc(-c3ccncc3)no2)c(OC)c1
  -422	-4	/	5	4	-2	11	-54
> O=C(CC(=O)c1ccccc1)Nc1cccnc1
  4	14	i	-8	-1	5	-1	-12
> O=C(OCc1nc2ccc(Cl)cc2n1CCO)c1ccccc1
  /	2	i	-16	2	6	4	/
> Cc1cccc(OCCN2C(=O)c3ccccc3C2=O)c1
  -1	-9	i	-10	-4	0	41	/
> Cc1cccc(Cn2nc(C)cc2NC(=O)Cn2cc([N+](=O)[O-])cn2)c1
  -17	-7	i	3	3	-3	-2	-12
> OCCNCc1cccc(OCc2ccccc2Cl)c1
  24	0	i	-10	-1	-2	6	/
> CC1(C)CC(C#N)(N2CCOCC2)CCO1 (configuration not stated)
  -18	1	i	-17	4	6	3	-11
> CCc1cc2c(CN3CCN(CC)CC3)cc(=O)oc2cc1O
  -53	-7	i	-16	4	1	-9	2
> CCCCCN(C(=O)CCC(=O)OCC(=O)c1ccc(C(C)(C)C)cc1)c1c(N)n(CCCC)c(=O)[nH]c1=O
  /	/	i	-9	-9	-9	/	/
> Cc1cccc(CSc2nnc3c(n2)[nH]c2ccccc23)c1
  -2	0	i	13	5	-9	0	/
> CC1(C)CC(NC(=O)C23CCC(C)(/C(=N/O)C2)C3(C)C)CC(C)(C)N1 (configuration not stated)
  -95	-3	i	-11	6	5	6	3
> O=C(c1ccc2nc(N3CCOCC3)sc2c1)N1CCN(C(=O)c2ccco2)CC1
  -3	4	i	13	1	3	7	-21
> O=C(COC(=O)COc1ccccc1F)NCc1ccco1
  -13	/	/	/	5	9	/	5
> CCOC(=O)c1c(S(=O)(=O)NCC(=O)NCc2ccccc2)c(C)n(C)c1C
  -2	/	i	-10	-1	1	/	-11
> O=C(NCc1ccccn1)c1ccc2nc(-c3ccco3)c(-c3ccco3)nc2c1
  /	78*	i	-7	/	/	97*	/
> O=C(O)C1CC(=O)N(Cc2cccs2)C1 (configuration not stated)
  /	10	i	-6	-2	0	6	-14
> COc1ccc(S(=O)(=O)N(C)c2ccc(C(=O)Nc3c(C)n(C)n(-c4ccccc4)c3=O)cc2)cc1
  -22	-4	i	-5	0	0	-7	-16
> CC(=O)Oc1cc(O)c2c(=O)c(OC(C)=O)c(-c3ccc(OC(C)=O)c(OC(C)=O)c3)oc2c1
  /	/	i	0	-36	-16	/	-7
> COc1ccc(S(=O)(=O)NNC(=O)C(=O)NNc2ccccn2)cc1
  -10	9	i	6	5	3	14	-19
> CCOCC(=O)Nc1nnc(COC)s1
  -102	15	i	-11	1	4	0	-15
> O=C(/C=C/c1ccc(Cl)c(Cl)c1)Nc1cccnc1
  -41	/	i	/	7	-2	/	0
> O=C(COC(=O)CSc1ccc2ccccc2c1)NC1CCCC1
  6	-4	i	-10	-1	3	8	1
> O=c1oc2ccc(Cl)cc2nc1/C=C(\O)c1ccco1
  28	21	i	21	8	-5	3	/
> CCN(CC)CCCC(C)NC(=O)c1c(NC(=O)c2ccccc2)sc2c1CCCC2 (configuration not stated)
  12	2	i	-1	-7	-3	-16	-4
> CCOC(=O)c1ccc(Nc2ncnc3ccc(C)cc23)cc1
  /	0	i	-4	-6	-14	-3	-3
> Cc1ccc(S(=O)(=O)NNC(=S)Nc2ccc(Cl)cc2)cc1
  -28	-2	i	17	9	5	-5	/
> Cc1cc(/C=C2/SC(=S)N(c3ccc([N+](=O)[O-])cc3)C2=O)c(C)n1-c1cccnc1
  45	-2	i	28	-16	-25	38	/
> COc1ccccc1C(=O)Nc1nnc(SCC(=O)NC2CCCC2)s1
  /	7	i	15	2	1	-1	-21
> CCOc1ccc(CCNC(=O)COC(=O)COc2ccc(Br)cc2)cc1OCC
  -6	1	i	5	1	7	0	4
> CCS(=O)(=O)N1CCCC(C(=O)Oc2ccc(Br)cc2)C1 (configuration not stated)
  -4	1	i	16	-1	6	-10	-5
> S=C(NCc1cccs1)Nc1cccc(Cl)c1
  /	4	i	10	5	-9	-11	/
> CCOC(=O)N1CCN(C(=O)c2cc(-c3ccc(F)cc3)[nH]c2C)CC1
  -54	0	/	-1	1	3	-7	9
> COc1ccc(C(CNC(=O)C2CC(=O)N(Cc3ccccc3)C2)N2CCCC2)cc1 (configuration not stated)
  -7	/	/	16	2	6	/	-13
> COc1ccc(CNC(=O)C2CC(C)=CCC2C(=O)O)cc1 (configuration not stated)
  -21	7	i	-8	0	3	-11	-6
> O=C1CC(=O)N(Cc2ccco2)C(=S)N1
  /	84*	i	-6	-29	41	64*	-22
> CCCCS(=O)(=O)N1CCN(S(=O)(=O)c2cccs2)CC1
  -346	0	i	-2	-2	-1	-9	-11
> O=C(CCCc1nc2ccccc2s1)N1CCN(c2ccccc2)CC1
  15	11	i	-3	1	7	-2	/
> CCCCOc1ccc(C(C)NC(=O)CCS(=O)(=O)Cc2ccc(Cl)cc2)cc1 (configuration not stated)
  12	-1	i	-14	0	-1	-9	-12
> C/C(=N\N1CCN(c2ccc(Cl)cc2)CC1)c1cccc([N+](=O)[O-])c1
  13	42	i	4	-1	-4	-3	0

Next part:
Below each SMILES: Env fusion inh	PABP polyA inh	Rce1 inh	CSC inhib	MT1-MMP act inh	MT1-MMP act inh RFP	eIF4H FP inh	UUG fidelity
> CN(C)c1ccc(C(=S)N2CCN(c3ccc([N+](=O)[O-])cc3)CC2)cc1
  17	-6	i	25	-1	-13	-6	-19
> Nc1ccc(Nc2ccc([N+](=O)[O-])cc2[N+](=O)[O-])cc1
  -10	13	i	5	7	-4	-3	/
> Cc1ccc(N(CC(=O)NC2CCCC2)C(=O)CCC(=O)Nc2nccs2)cc1C
  -23	-1	i	-3	-2	-2	2	-3
> O=C(c1cnc(Cl)c(Cl)c1)N1CCC(Cc2ccccc2)CC1
  19	0	+	5	/	/	1	/
> CCOC(=O)/C(=N\O)C1=NC(C)(C)Cc2ccccc21
  -19	5	i	-18	2	-7	-4	/
> CCOCC(O)CSCc1ccc(Cl)cc1 (configuration not stated)
  -50	-6	i	8	5	4	1	-15
> O=C(O)c1ccc(-c2nn3c(=O)cc(N4CCNCC4)nc3s2)cc1
  -11	/	/	/	3	1	/	-39
> O=C(O)c1cc(-c2cccs2)nc2ccc(Br)cc12
  -12	-3	i	-1	0	2	-7	/
> Cc1nn(Cc2ccc(Cl)cc2)c(C)c1NC(=O)c1cc(-c2ccc3c(c2)OCO3)on1
  30	0	i	83*	-6	-19	-1	/
> CCC(C)N1C(=O)/C(=C/c2c(NCCCOC(C)C)nc3c(C)cccn3c2=O)SC1=S (configuration not stated)
  -41	?	/	/	-21	91	?	-21
> CCOc1ccc(NC(=O)CC2C(=O)NCCN2C(=O)Nc2ccccc2)cc1 (configuration not stated)
  -22	-8	i	3	-4	-1	-9	-10
> COc1ccc(NC(=O)C(C/C=C(/C)Cl)C(C)=O)cc1 (configuration not stated)
  /	1	i	-5	-4	-4	-2	-11
> CCOc1ccc(N2C(=O)CC(C(C)c3ccccc3)C2=O)cc1 (configuration not stated)
  -12	0	i	-14	0	-6	-4	-2
> Cc1ccc(-n2nc3c(=O)n(CC(=O)NC(C)CCc4ccccc4)nc(C)c3c2C)cc1 (configuration not stated)
  /	-1	i	2	7	-27	-7	0
> O=C(CSc1nnc(SCc2cccc3ccccc23)s1)c1ccc2c(c1)OCO2
  -40	4	i	0	1	10	12	-18
> Cc1[nH]c2ccccc2c1C1=CN2CCS(=O)(=O)N=C2S1
  /	-8	i	-10	3	3	-1	-13
> COc1cc(NC(=O)Nn2cnnc2)cc(OC)c1OC
  -4	-11	i	/	5	4	-3	-6
> COc1cccc(N2CCN(C(=O)c3cn(Cc4ccccc4)nc3-c3cccnc3)CC2)c1
  18	/	/	42	-3	-8	/	-13

Rce1 inh, hit marks shown above.
molecule,Env fusion inh,Rce1 inh,MT1-MMP act inh,MT1-MMP act inh RFP,UUG fidelity
O=C(c1cnc(Cl)c(Cl)c1)N1CCC(Cc2ccccc2)CC1,19,+,/,/,/

A different layout for some results above:
Compound,Env fusion inh,PABP polyA inh,Rce1 inh,CSC inhib,MT1-MMP act inh,MT1-MMP act inh RFP,eIF4H FP inh,UUG fidelity
COc1ccc(NC(=O)C(C/C=C(/C)Cl)C(C)=O)cc1 (configuration not stated),/,1,i,-5,-4,-4,-2,-11
COc1cc(NC(=O)Nn2cnnc2)cc(OC)c1OC,-4,-11,i,/,5,4,-3,-6
